FGF22 binding: binders of human FGF22 protein, primary screen, FGF22 synaptogenesis inhibitor project, biophysical, thermal shift, single point. Fibroblast growth factor 22 (Homo sapiens), Q9HCT0. recombinant FGF22 thermal shift, SYPRO orange fluorescence; percent of sucrose octasulfate shift, DMSO zero. calls only at 9.99 µM. 1.5% of 340,000 active;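 active means melting point raised past a set limit in the mean and every replicate; inconclusive means no clear call; three in four hits are not shown here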
Target sequence (Q9HCT0 whole entry, looked up): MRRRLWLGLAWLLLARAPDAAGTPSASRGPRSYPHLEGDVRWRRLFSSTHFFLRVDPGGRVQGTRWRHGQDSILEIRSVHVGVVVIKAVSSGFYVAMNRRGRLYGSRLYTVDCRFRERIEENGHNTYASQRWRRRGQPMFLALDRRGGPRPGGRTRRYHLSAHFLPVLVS
Ecoli growth: E. coli growth inhibition, primary screen, OD600 | 0.21% of 330,000 active | OD600 absorbance (no concentration beside the values) | Escherichia coli growth, 23 h; active compounds read low;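 active means OD600 absorbance below the run mean of sample wells minus 3.6 SD, in any replicate, cut at about 0.56 in these data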;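 further: stock transfer was 300 nL into about 60 µL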
HNF4A DNA FP: change in binding of human HNF4A to DNA, primary screen, biochemical, fluorescence polarization, FITC-DNA | Hepatocyte nuclear factor 4-alpha (Homo sapiens), P41235 | 1 h | activity change, % at 10 µM | 0.3% of 360,000 active | AID 1224865, 2016; in the data active means activity change above about 30%, passing the limit was not always enough;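 further: controls were the assay level and a saturating level of protein; the project sought stronger binding though the title names inhibitors; some compounds called inactive have numbers as strong as hits; positive values seem to mean higher polarization but the record does not say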
Ecoli rRNA inh: reduced GFP signal of wild-type E. coli, primary screen, bacterial rRNA inhibitor project, GFP/RFP fluorescence, OD600, single point; E. coli WT GFP vs humanized-ribosome RFP mutants, 24 h; active compounds read low; DMSO median 0, no signal -100; GFP signal change (wild-type ribosome), % (test concentration not listed); 1.6% of 350,000 active;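 active means significant combined selectivity score with lowered wild-type GFP, culture density cut under 30%, mutant RFP and density less affected; inactive means any of these conditions unmet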; further: one replicate is shown; some compounds called inactive have numbers as strong as hits
Vif A3G: inhibitors of Vif binding to APOBEC3G peptide, primary screen, biochemical, TR-FRET, GST-Vif 1-94, biotin-A3G peptide, dose response retest (AID 1117319); Virion infectivity factor (Human immunodeficiency virus type 1 group M subtype B (isolate …; TR-FRET GST-Vif / biotin-A3G peptide binding; higher % means a stronger effect; test concentration not given here; strong numbers were not always called active; inhibition, %, or IC50 in µM where a hit was titrated; 0.57% of 260,000 active;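 active means above the screen mean plus three standard deviations and confirmed in dose response; inconclusive means results disagree or hit not tested in dose response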;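 further: Vif residues 1-94 fused to GST binding biotinylated APOBEC3G peptide 110-148; 0% = full assay without inhibitor and 100% = GST in place of GST-Vif; retest series ran down from 100 µM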
MLL AF4-AF9 inh: inhibitors of AF4 peptide binding to AF9, primary screen, biochemical, AlphaScreen, biotin-AF4 peptide, FLAG-AF9, single point; Protein AF-9 (Homo sapiens), P42568; 0.47% of 350,000 active; AID 651704, 2012; inhibition, % at 10 µM;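 active means every replicate reaching a set inhibition limit, whatever the replicate mean, cut at about 25% in these data; inconclusive means mean inhibition reaches that limit but some replicates miss it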;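 further: 0% = plate neutral control median and 100% = total signal loss; the record names both 10 and 1 µM as test concentration; the first replicate is given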
Target sequence (P42568 whole entry, looked up): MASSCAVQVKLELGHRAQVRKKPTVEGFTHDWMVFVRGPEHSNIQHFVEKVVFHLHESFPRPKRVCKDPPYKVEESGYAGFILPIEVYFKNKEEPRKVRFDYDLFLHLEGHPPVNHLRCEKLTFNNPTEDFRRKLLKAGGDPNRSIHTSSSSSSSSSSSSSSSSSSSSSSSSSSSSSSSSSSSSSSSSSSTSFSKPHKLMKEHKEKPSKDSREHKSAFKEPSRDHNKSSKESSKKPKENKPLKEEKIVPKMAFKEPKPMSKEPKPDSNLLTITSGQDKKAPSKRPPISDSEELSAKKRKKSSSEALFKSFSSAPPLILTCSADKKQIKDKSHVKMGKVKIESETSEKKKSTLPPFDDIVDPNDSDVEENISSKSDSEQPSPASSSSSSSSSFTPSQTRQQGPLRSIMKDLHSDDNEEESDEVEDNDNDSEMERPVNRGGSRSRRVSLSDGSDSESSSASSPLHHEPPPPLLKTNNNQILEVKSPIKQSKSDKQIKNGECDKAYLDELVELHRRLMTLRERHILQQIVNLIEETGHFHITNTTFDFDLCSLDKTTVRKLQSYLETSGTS
ALR H2O2 inh: inhibitors of human ALR sulfhydryl oxidase, primary screen, biochemical, H2O2 detection, HRP-luminol luminescence, single point. FAD-linked sulfhydryl oxidase ALR (Homo sapiens), P55789. purified ALR, DTT oxidation. inhibition, % (test concentration not listed). 3.8% of 290,000 active;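 active means mean and each replicate at 75% or more; inconclusive means only one of the two met; inactive means neither met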;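 further: stock transfer was 7.5 nL into about 7.5 µL; 0% = neutral wells and 100% = wells with inactivated enzyme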
Target sequence (P55789 whole entry, looked up): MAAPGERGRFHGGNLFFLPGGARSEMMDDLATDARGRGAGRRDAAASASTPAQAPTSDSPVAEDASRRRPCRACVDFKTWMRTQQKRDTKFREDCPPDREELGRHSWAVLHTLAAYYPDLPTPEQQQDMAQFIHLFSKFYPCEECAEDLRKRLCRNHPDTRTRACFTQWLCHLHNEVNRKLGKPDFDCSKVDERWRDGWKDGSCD
Ecoli rRNA inh OD600: recorded beside Ecoli rRNA inh, whose call it bears; OD600 change, %; measured here: OD600 growth;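 optical density of the mix in the first replicate; 0 = DMSO median and -100 = no signal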
Ecoli rRNA inh RFP: second read-out of Ecoli rRNA inh, no call of its own (marks repeat the call); RFP signal change, %; measured here: RFP humanized mutant strains;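 first replicate; 0 = DMSO median and -100 = no signal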
Numbers without * were called inactive; i = inactive; ? = inconclusive; / = no result given; & = joins results of further samples. Only part of the results is shown (hit frequency here may not be typical).

no.	structure	FGF22 binding	Ecoli growth	HNF4A DNA FP	Ecoli rRNA inh	Ecoli rRNA inh OD600	Ecoli rRNA inh RFP	Vif A3G	MLL AF4-AF9 inh	ALR H2O2 inh
1	COc1cc(N2CCOCC2)ccc1/C=C1\C(=O)NC(=O)N(Cc2cccs2)C1=O	i	0.68	1.3	-26	-37	6.5	4%	1.3	58
2	O=C(O)C1C(C(=O)O)C2(Cl)C(Cl)=C(Cl)C1(Cl)C2(Cl)Cl (stereo unspecified)	i	0.69	-0.8	5	7	0.4	/	/	1
3	O=C(N=Nc1c(O)[nH]c(=O)[nH]c1=O)C1COc2cc3ccccc3cc2O1 (stereo unspecified)	i	0.67	-0.6	4	5	1.4	4%	-3.9	13
4	COc1ccccc1CCNC1CCC(C(C)(C)C)CC1 (stereo unspecified)	i	0.63	-0.3	-54	-74	-31	3%	15	-3
5	CCCCSC1=NN1c1nc(N)nc(C)c1CC	/	0.72	-1.2	/	/	/	-1%	/	-10
6	Cc1ccc(C(=O)Nc2ccc(-n3ccnc3P(=O)(O)c3ccccc3)cc2)cc1	/	0.73	-1.7	/	/	/	20%	/	1
7	Cc1ccc(NC(=S)NCCc2cnc[nH]2)cc1C	i	0.66	7.5	5	3	0.2	-1%	-0.7	/
8	Cc1ccc2c(c1)C1CN(C)CCC1N2C(=O)CCCN1C(=O)c2cccc3cccc(c23)C1=O (stereo unspecified)	i	0.73	-0.8	-15	-7	-2.8	12%	2.9	-17
9	Nc1ccc(Cc2ccc(N)c(Cl)c2)cc1Cl	i	0.62	3.5	-20	-19	-0.6	/	/	/
10	O=C(COC(=O)Cc1ccccc1)Nc1ccc(SC(F)F)cc1	i	0.66	0.9	-13	-8	3.4	/	-2.4	18
11	Fc1ccc(CN2CCN(c3ccc(Cl)cc3)CC2)cc1	i	0.7	0.1	-7	-4	-1.4	-4%	-0.7	5
12	N#Cc1cccc(-c2ccc([C@H]3[C@@H](CO)N4CCCCN(C(=O)Cc5cccnc5)C[C@@H]34)cc2)c1	i	/	/	-5	2	-4.0	/	2.9	/
13	Cn1c(O)c(C2=NN(C(=O)CCl)C(c3ccccc3)C2)c(=O)n(C)c1=O (stereo unspecified)	i	0.64	3.4	/	/	/	4%	-3.0	-3
14	Nc1ccc(-c2ccccc2)cc1	i	0.66	1.8	1	11	2.9	3%	-6.3	/
15	CC(C)[C@H]1C(=O)O[C@@H]2CCN3CC=C(COC(=O)[C@](C)(O)[C@]1(C)O)[C@H]23	i	0.66	2.5	17	12	0.9	0%	-2.8	34
16	CC(C)CCNC(=O)c1cc(C(=O)c2cc(F)ccc2O)cn(CCC(C)C)c1=O	i	0.73	2.1	4	4	2.8	20%	-0.2	-17
17	CN1C(=O)C(C)(C2=CCCCC2)C(=O)NC1=S (stereo unspecified)	i	/	4.7	5	10	-1.9	0%	-0.7	/
18	CCCn1ncc(CN2CCCC(C(=O)c3cccc(OC)c3)C2)c1C (stereo unspecified)	i	0.65	-2.7	8	6	-2.2	9%	1.3	0
19	COc1cccc(C(c2nnnn2-c2ccc3c(c2)OCCO3)N2CCC(n3c(=O)[nH]c4ccccc43)CC2)c1OC (stereo unspecified)	i	/	-3.7	0	-1	-2.0	/	-5.7	/
20	COC(=O)C1=C(c2ccc(-c3ccccc3)c(F)c2)C[C@@H]2CC[C@H]1N2C(=O)N1CCC(O)CC1	i	/	-3.0	-24	-14	-12	/	5.0	-4
21	O=S(=O)(c1ccccc1)C1CN1c1c(F)c(F)c(F)c(F)c1F (stereo unspecified)	i	/	-3.9	17	22	0.3	/	-4.5	/
22	O=c1[nH]c(=O)n(Cc2ccco2)c(O)c1C=NCc1ccc2c(c1)OCO2	/	0.72	2.0	/	/	/	>100µM*	/	-1
23	Cc1nc(SCc2c(Cl)cccc2Cl)nc(OC(=O)N(C)C)c1C	i	0.68	0.0	-25	-28	-8.0	8%	-3.0	-7
24	COC(=O)c1ccc(NC(=O)CSc2nc3ccc(N4C(=O)C5C6C=CC(C6)C5C4=O)cc3s2)cc1 (stereo unspecified)	i	0.71	2.1	-13	-12	0.1	/	3.3	0
25	CCC1(CC(C)c2ccccc2)C(=O)NC(=O)NC1=O (stereo unspecified)	i	0.67	1.7	10	9	1.6	9%	-0.7	/
26	Cc1nn(Cc2ccccc2)c(Cl)c1C(=O)OCC(=O)NCC1CCCO1 (stereo unspecified)	i	0.63	-1.5	-9	-6	2.5	/	-1.6	0
27	CCn1cc(C(=O)c2ccccc2)c2ccccc21	/	0.7	-5.3	/	/	/	0%	/	5
28	CN1C(=O)C(=Cc2cn(CC(=O)N3CCCCC3)c3ccccc23)C(=O)N(C)C1=O	/	0.7	-1.5	/	/	/	/	/	32
29	CCOC(=O)[C@]12Cc3cc(C)ccc3[C@H]1N(C)C(=O)c1ccccc12	i	/	-1.8	22	-45	23	/	1.3	/
30	Cc1[nH]c2ccccc2c1C(=O)C(=O)N1CC2CC(C1)c1cccc(=O)n1C2 (stereo unspecified)	i	0.72	2.6	13	12	1.4	-1%	-7.9	1
31	CC1CCC(C(=O)NC(C(=O)N2CCC3(CC2)OCCO3)C(C)C)CC1 (stereo unspecified)	/	0.73	1.1	/	/	/	-5%	/	-9
32	CS(=O)(=O)c1ccc(C2=C(CNC(=O)c3cccs3)[C@H]3CC[C@@H](C2)N3Cc2ccccc2)cc1	i	/	1.9	8	8	-5.3	6%	3.6	/
33	COc1ccc(OC)c(CC(=O)O)c1	/	0.71	2.2	/	/	/	1%	/	-5
34	Cc1nc(C)c(C(=O)NN=Cc2ccc(N(CCCl)CCCl)cc2)s1	i	/	0.5	18	8	4.1	/	-62	/
35	CCOC(=O)CNC(=O)N1Cc2cc(N3CCCCC3)ccc2-n2nncc2C1	i	/	13	12	17	16	/	-0.5	/
36	C[C@]1(O)CCC2C3CC[C@@H]4CC(=O)CC[C@]4(C)C3CC[C@@]21C (stereo partly specified)	i	/	-5.0	-15	-42	-4.5	-2%	-1.6	0

Among those listed so far, 2 contain a thiophene ring, fused or not:
no.	structure	FGF22 binding	Ecoli growth	HNF4A DNA FP	Ecoli rRNA inh	Ecoli rRNA inh OD600	Ecoli rRNA inh RFP	Vif A3G	MLL AF4-AF9 inh	ALR H2O2 inh
1	COc1cc(N2CCOCC2)ccc1/C=C1\C(=O)NC(=O)N(Cc2cccs2)C1=O	i	0.68	1.3	-26	-37	6.5	4%	1.3	58
32	CS(=O)(=O)c1ccc(C2=C(CNC(=O)c3cccs3)[C@H]3CC[C@@H](C2)N3Cc2ccccc2)cc1	i	/	1.9	8	8	-5.3	6%	3.6	/

(list continues)
no.	structure	FGF22 binding	Ecoli growth	HNF4A DNA FP	Ecoli rRNA inh	Ecoli rRNA inh OD600	Ecoli rRNA inh RFP	Vif A3G	MLL AF4-AF9 inh	ALR H2O2 inh
37	Cc1ccc(-n2c(O)c(C=NC3CCCC3)c(=O)[nH]c2=O)c(C)c1	/	0.83	5.4	/	/	/	3%	/	-3
38	CCCn1cc(C(=O)O)cn1	/	0.7	-0.7	14	12	0.4	15%	-1.5	-5
39	Cc1ccc2c(c1)[C@@H]1CN(C)CC[C@@H]1N2C(=O)Nc1cccc(C(F)(F)F)c1	/	0.66	2.4	/	/	/	0%&-5%	/	3
40	CC(=O)c1ccc(OCC(=O)N2CCCC(N3CCN(c4ccccc4C)CC3)C2)cc1 (stereo unspecified)	i	0.71	0.5	-4	-13	-1.3	4%	-1.8	15
41	CC[C@H]1c2ccccc2[C@@H]2CC[C@H]1N2c1ccccc1	/	/	1.9	-1	3	1.3	/	-1.6	/
42	O=[N+]([O-])c1cc([As](=O)(O)O)ccc1O	i	0.64	-2.7	/	/	/	/	-3.0	-10
43	NNc1n[nH]c(=S)n1N	i	/	0.5	2	1	-3.9	-6%	-5.9	-12
44	CC(=O)N(C1=NCCCS1)c1ccc(F)cc1	/	0.65	-0.6	/	/	/	0%	/	-8
45	C[N+]1(C)CCN(c2ccccc2)CC1	i	0.72	-0.2	11	12	-2.2	20%	-1.6	-4
46	N#CCCn1cc(C(=O)Nc2ccc([N+](=O)[O-])cc2)c(-c2ccccc2)n1	i	0.65	1.3	-7	-2	-5.0	19%	-2.1	/
47	Cc1ccc(/C=C2\C(=O)NC(=S)N(c3cccc(F)c3)C2=O)o1	i	0.69	21	15	18	4.5	/	-6.0	31
48	Cc1cc(O)c(CN2CCN(c3ccccc3)CC2)cc1C	/	0.76	-2.9	/	/	/	0%	/	/
49	CCCCCn1c(NC(=O)c2ccco2)c(C(=O)OCC)c2nc3ccccc3nc21	/	0.73	9.9	/	/	/	16%	/	35
50	Cc1ccccc1-n1c(C)cc(/C=C2/C(=O)NC(=O)N(Cc3ccco3)C2=O)c1C	i	0.69	-2.5	10	16	2.6	/	6.5	0
51	CN1C(=O)C(=Cc2ccc(N3CCCCCC3)cc2)C(=O)N(C)C1=O	i	0.69	3.4	-5	2	60	?	2.9	24
52	NC(N)=N/N=C/c1cn(-c2ccccc2)nc1-c1cccs1	i	/	-0.4	-62	-81	-25	?	31*	4
53	COC(=O)C1=C(c2cccc(C#N)c2)C[C@@H]2CC[C@H]1N2C(=O)N1CCC(O)CC1	i	/	3.2	18	17	-6.7	/	-0.3	6
54	COc1ccc(-c2[nH]ncc2CNC(C)Cc2ccsc2)c(F)c1 (stereo unspecified)	i	0.65	-1.3	4	0	6.2	/	-3.6	-2
55	O=[N+]([O-])c1cccc2c([N+](=O)[O-])cccc12	i	0.66	-4.7	6	5	3.3	/	/	5
56	COC(=O)C1=C(c2ccccc2)C[C@@H]2CC[C@H]1N2C(=O)N1CCCCC1	i	0.8	-1.6	-1	-9	-4.8	/	/	-4
57	O=c1[nH]c(=O)n(CCc2ccc(F)cc2)c(O)c1C=NCCCn1ccnc1	/	0.69	11	/	/	/	-5%	/	-5
58	CC[C@H]1OC(=O)C[C@@H](O)[C@H](C)[C@@H](O[C@@H]2O[C@H](C)[C@@H](O[C@H]3C[C@@](C)(O)[C@@H](O)[C@H](C)O3)[C@H](N(C)C)[C@H]2O)[C@@H](CC=O)C[C@@H](C)C(=O)/C=C/C(C)=C/[C@@H]1CO[C@@H]1O[C@H](C)[C@@H](O)[C@@H](OC)[C@H]1OC	i	/	-0.9	/	/	/	/	-1.5	/
59	COc1cc(C(=S)N2CCOCC2)cc(OC)c1OC(=O)Cc1ccccc1	i	0.64	-5.0	-2	-14	-1.1	24%	2.5	3
60	Cc1cccc(N/N=C(\C(N)=O)C2=NC(C)(C)Cc3ccccc32)c1	/	/	5.3	/	/	/	0%	/	15
61	O=Cc1cn(Cc2cccc(F)c2)c2ccccc12	/	0.67	5.3	/	/	/	/	/	-8
62	C=C1C(=O)OC2CC3(C)OC3CCC(C)=CC(OC(C)=O)C12 (stereo unspecified)	i	/	-3.4	8	14	5.6	-10%	4.7	/
63	CCOC(=O)c1cc2c(cn1)[C@@H](CCO)NC2	i	0.67	-1.5	4	10	-0.8	-2%	-2.7	/
64	COc1c(C)cc(C(=O)C2CCCN(Cc3cccc(O)c3)C2)cc1C (stereo unspecified)	i	0.69	-1.1	1	-6	2.0	/	1.8	3

From PubChem BioAssay
